# High-throughput results from PubChem BioAssay.
# PKD1 kinase inh – blocks activity of human protein kinase D1 | Q15139 | PKD1 kinase fluorescence polarization assay | inhibition, %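 (about 10 µM by stock and volumes)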 | 200,000 compounds, 0.056% hits;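 active = inhibition of 50% or more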;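 also: controls were vehicle for no effect and a reference inhibitor for full effect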
# INS promoter inh – TRM-6 insulin promoter activity inhibition; inhibition, % at 2 µM; TRM-6 cells (human fetal islet line), insulin promoter-eGFP reporter, imaging; reporter expression induced with tamoxifen; 130,000 compounds, 0.9% hits; AID 1273;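 active = inhibition above the mean plus 3 SD, with well images judged a real hit on visual review, cut at about 60% in these data, passing the limit was not always enough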
# HSV augment – HSV replication enhancement; 220,000 compounds, 0.005% hits; AID 1956; HSV replication augmentation in cells, fold increase; maximum fold increase;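 active = peak rise of 1.5-fold or more in the series; tested in PC3 cells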;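 also: first round at 10 µM; read as green reporter fluorescence; hits show the peak of a series up to 25 µM; 1 = signal of infected wells without compound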
# GALR2 agonist – agonists of human galanin receptor 2 (GALR2) | 140,000 compounds, 0.48% hits | O43603 | activation, %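 (tested at 5 µM)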 | GALR2-expressing cells, agonist activation read-out;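 active = above mean plus 3 SD of all compounds, about 5% in these data, not always enough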;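 also: 0% = vehicle buffer wells and 100% = reference agonist at full effect; tested in CHO reporter cells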
# Target sequence (O43603 whole entry, looked up): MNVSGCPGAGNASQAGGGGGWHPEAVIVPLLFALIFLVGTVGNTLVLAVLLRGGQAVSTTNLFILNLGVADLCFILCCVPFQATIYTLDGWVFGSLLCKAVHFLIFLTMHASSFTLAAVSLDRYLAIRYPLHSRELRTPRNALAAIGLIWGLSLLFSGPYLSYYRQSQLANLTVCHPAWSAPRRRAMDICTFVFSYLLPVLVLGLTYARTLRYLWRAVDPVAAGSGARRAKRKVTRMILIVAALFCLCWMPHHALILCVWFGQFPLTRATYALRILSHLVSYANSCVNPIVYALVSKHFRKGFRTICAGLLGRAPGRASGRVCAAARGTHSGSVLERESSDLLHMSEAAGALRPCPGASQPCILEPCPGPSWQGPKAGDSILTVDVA
# RGS16-Gao – regulators of human RGS16-Galphao interaction | O15492+P09471 | bead-based flow cytometry RGS16-Galphao binding, fluorescence; actives lie on both sides | binding response (% of control), % at 10 µM | 220,000 compounds, 0.38% hits;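 active = below 25% or above 175%, edge rows of some plates excepted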;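 also: Galphao activated by GDP with aluminum fluoride before binding; 100% = wells without compound and 0% = beads without RGS; some results beyond the cut were filed as inactive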
# Target sequence (O15492 whole entry, looked up): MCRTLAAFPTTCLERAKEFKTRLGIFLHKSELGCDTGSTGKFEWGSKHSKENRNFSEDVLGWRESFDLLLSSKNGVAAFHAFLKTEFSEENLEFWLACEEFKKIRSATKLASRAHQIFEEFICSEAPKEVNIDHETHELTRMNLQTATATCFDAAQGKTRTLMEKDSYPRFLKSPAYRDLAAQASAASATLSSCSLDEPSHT
# Target sequence (P09471 whole entry, looked up): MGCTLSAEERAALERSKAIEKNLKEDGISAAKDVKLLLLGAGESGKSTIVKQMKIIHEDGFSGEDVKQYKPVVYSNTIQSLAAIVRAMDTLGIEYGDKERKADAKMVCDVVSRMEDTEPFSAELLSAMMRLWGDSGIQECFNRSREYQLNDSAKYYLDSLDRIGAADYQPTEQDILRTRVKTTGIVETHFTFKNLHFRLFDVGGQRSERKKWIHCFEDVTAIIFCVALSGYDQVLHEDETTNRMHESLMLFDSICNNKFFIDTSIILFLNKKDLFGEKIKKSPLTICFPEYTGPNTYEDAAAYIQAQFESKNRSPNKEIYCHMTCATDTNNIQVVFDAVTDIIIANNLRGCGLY
# INS promoter inh cell count – further read-out of INS promoter inh, marked with its call; normalized cell count, %; measured here: cell count, toxicity; reference of the scale not given here;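 cells exposed to compound for 48 h; stained nuclei by imaging scaled within each plate; lower means fewer cells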
# HSV augment primary fold – further read-out of HSV augment, marked with its call; fold increase; compound at 10 µM; measured here: primary screen fold increase 10 uM; tested in PC3 cells;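 GFP signal in the first replicate; 1 = infected wells without compound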
# Active calls of the source: *; i = inactive; / = no result given.
# The first 4 compounds as a preview:
No. | Molecule | HSV augment | RGS16-Gao | GALR2 agonist | INS promoter inh cell count | HSV augment primary fold | PKD1 kinase inh | INS promoter inh
1 | CCOc1ccc(/C=C/C(=O)c2ccccc2)cc1 | i | -3.6* | / | / | 1 | / | /
2 | O=C(COc1cccc2cccnc12)Nc1ccccc1 | i | 93 | / | 157 | 0.96 | -7 | -17
3 | Cc1ccc(-c2nnc(SCC(=O)OC(C)C)n2N)cc1 | i | 102 | -2.5 | 100 | 0.97 | -1 | -26
4 | O=C(COc1ccccc1)NNC(=O)COc1ccc([N+](=O)[O-])cc1 | i | 108 | / | 82 | 1 | 1 | 0

# Main list (from the top)
No. | Molecule | HSV augment | RGS16-Gao | GALR2 agonist | INS promoter inh cell count | HSV augment primary fold | PKD1 kinase inh | INS promoter inh
1 | CCOc1ccc(/C=C/C(=O)c2ccccc2)cc1 | i | -3.6* | / | / | 1 | / | /
2 | O=C(COc1cccc2cccnc12)Nc1ccccc1 | i | 93 | / | 157 | 0.96 | -7 | -17
3 | Cc1ccc(-c2nnc(SCC(=O)OC(C)C)n2N)cc1 | i | 102 | -2.5 | 100 | 0.97 | -1 | -26
4 | O=C(COc1ccccc1)NNC(=O)COc1ccc([N+](=O)[O-])cc1 | i | 108 | / | 82 | 1 | 1 | 0
5 | COc1ccccc1CN=Cc1[nH]c2ccc(Br)c(Cl)c2c1O | i | 104 | -1.1 | / | 1 | -12 | /
6 | O=C(Nc1ccccc1)OCCN1CCN(Cc2ccccc2)CCC1=O | i | 106 | -0.5 | 81 | 0.91 | -3 | -18
7 | COC1=CCC2([N+](=O)[O-])CN(CCO)CC1([N+](=O)[O-])C2 (centres undefined) | i | 101 | 0.3 | 86 | 0.98 | -1 | -23
8 | Cc1cc(NC(=O)c2cc(C3CC3)on2)no1 | i | 89 | / | / | 0.89 | 3 | /
9 | O=C(O)/C=C/C(=O)N1CCN(c2ccccc2F)CC1 | i | 107 | 0.4 | 103 | 0.83 | -7 | -5
10 | COc1ccc(NC2=NCC(=O)N2c2ccccc2)c(OC)c1 | i | 105 | -1.6 | 83 | 1.1 | 4 | 0

# Overlap with the part before: 2 compounds, then new ones.
No. | Molecule | HSV augment | RGS16-Gao | GALR2 agonist | INS promoter inh cell count | HSV augment primary fold | PKD1 kinase inh | INS promoter inh
9 | O=C(O)/C=C/C(=O)N1CCN(c2ccccc2F)CC1 | i | 107 | 0.4 | 103 | 0.83 | -7 | -5
10 | COc1ccc(NC2=NCC(=O)N2c2ccccc2)c(OC)c1 | i | 105 | -1.6 | 83 | 1.1 | 4 | 0
11 | CC(C)n1c(/N=C/c2c[nH]c3ccccc23)nc2ccccc21 | i | 104 | -1.3 | 128 | 1.1 | 5 | 0
12 | O=C(Cn1c2[n+](c3ccc(C(F)(F)F)cc31)CCCCC2)Nc1ccccc1 | i | 106 | -0.5 | 52 | 1.1 | -13 | -37
13 | O=C(COc1ccc2ccc(=O)oc2c1)N1CCc2ccccc21 | i | 101 | / | / | 0.96 | 7 | /
14 | CC(=O)c1ccc(S(=O)(=O)Nc2cccc(S(=O)(=O)NC3=NCCC3)c2)cc1 | i | 102 | -0.8 | 102 | 0.92 | -14 | 8
15 | CC1Cc2ccccc2N1C(=O)COC(=O)C1(c2ccccc2F)CCCC1 (centres undefined) | i | 92 | -0.9 | / | 1.1 | 0 | /
16 | COc1ccc(/C=N/NC(=O)c2ccc(O)cc2O)cc1CSc1ccccn1 | i | 99 | -0.7 | / | 1.1 | 5 | /
17 | CN1CCc2c(OCC(=O)N3N=C(c4cccs4)CC3c3ccc(F)cc3)cccc2C1=O (centres undefined) | / | 101 | 0.0 | / | / | -6 | /
18 | CCOc1cc(N2CCOCC2)c(OCC)cc1NC(=O)c1cc(-c2ccco2)nc2ccccc12 | i | 99 | -0.1 | 137 | 0.79 | -14 | 16
19 | CCc1cc2c(=O)[nH]c(Cc3ccc(Cl)cc3)nc2s1 | i | 110 | 2.0 | 79 | 0.85 | 2 | 2
20 | COc1ccc(NS(=O)(=O)c2ccc(OC)c(N(C)S(=O)(=O)c3ccc(Cl)cc3)c2)cc1 | i | 96 | -0.8 | / | 0.89 | 11 | /
21 | Cn1c(N)c(C(=O)COC(=O)c2nc(Cl)ccc2Cl)c(=O)n(C)c1=O | i | 101 | / | / | 0.91 | 7 | /
22 | CCCC1CCC(c2nc(-c3cccnc3)no2)CC1 (centres undefined) | i | 101 | -3.4 | 122 | 0.94 | 3 | 29
23 | CCNC(=O)NC(=O)c1csc([N+](=O)[O-])c1 | i | 104 | / | / | 1.2 | / | /
24 | C=CCOc1ccc2ccccc2c1CNCCCN1CCOCC1 | / | 103 | -2.6 | / | / | 3 | /
25 | O=c1oc2cc(OCc3ccc(F)cc3F)ccc2cc1-c1ccc2ccccc2n1 | i | 101 | 1.1 | / | 1.1 | 5 | /
26 | O=C(Cn1c(NCCO)nc2ccccc21)NCCc1ccccc1 | i | 97 | -0.9 | 69 | 1 | -3 | -21
27 | O=C(NCCn1ccc2ccccc21)c1cccc([N+](=O)[O-])c1 | i | 97 | / | 184 | 1.1 | 7 | 35
28 | O=C(COc1ccc(C(=O)Nc2ccc(Cl)cc2)cc1)NCc1ccccc1 | i | 103 | 3.9 | 119 | 0.96 | -7 | 10
29 | CC(=O)CSc1nc2ccc(Nc3nc(N4CCOCC4)nc(N4CCOCC4)n3)cc2s1 | i | 104 | -0.4 | 91 | 0.71 | 2 | 36
30 | COc1cc(CNc2ccc3c(c2)CCC3)cc(OC)c1O | i | 104 | 0.3 | 49 | 0.92 | -7 | 15
31 | c1ccc2c(NC3CCCC3)nnc(NC3CCCC3)c2c1 | i | 85 | 0.2 | 141 | 0.75 | 5 | 11
32 | O=C1C(Cl)=C(Nc2cccc(O)c2)C(=O)N1Cc1ccccc1 | i | 97 | / | 80 | 0.74 | 2 | 12
33 | CCOC(=O)c1nnn(CC(=O)N2N=C(c3ccc(Cl)cc3)CC2c2ccc(OC)cc2)c1C(=O)OCC (centres undefined) | i | 107 | -1.1 | 49 | 0.79 | -7 | i
34 | O=C(CCCc1nc2ccccc2s1)Nc1nccs1 | i | 94 | -1.5 | / | 0.9 | 0 | /
35 | O=C(O)c1ccc(-c2nc(-c3ccccc3Cl)cs2)cc1 | i | 100 | / | 143 | 0.89 | 4 | -12
36 | CCOC(=O)c1ccc(NC(=O)C2(c3ccc(OC)cc3)CCOCC2)cc1 | i | 116 | -0.3 | 161 | 0.94 | 1 | 37
37 | O=C(Nc1cccc(N=Cc2cc(Br)cc(Br)c2O)c1)c1ccco1 | i | 95 | -1.2 | / | 1.2 | -15 | /
38 | CS(=O)(=O)N(CC(=O)NCc1ccccc1Cl)Cc1ccccc1 | i | 98 | -0.5 | 126 | 1.1 | 0 | 44
39 | COc1ccc(-c2cc(C(=O)Nc3cc(S(=O)(=O)N4CCOCC4)ccc3N3CCOCC3)c3ccccc3n2)cc1 | i | 101 | / | / | 0.99 | 3 | /
40 | CC(=O)Nc1cccc(OCC(=O)Nc2ccc(F)cc2)c1 | / | 104 | -1.9 | 147 | / | -8 | -140
41 | COCCn1c(SCC(=O)Nc2ccc(S(N)(=O)=O)cc2)nc2ccccc21 | i | 99 | -1.1 | 119 | 0.95 | 1 | -3
42 | O=C(CSc1nnc2c(n1)[nH]c1ccc(S(=O)(=O)N3CCOCC3)cc12)Nc1ccc(F)c(F)c1 | i | 100 | / | / | 0.85 | 3 | /
43 | Cn1nc(-c2ccccc2)c(C(=O)Nc2ccc(Cl)cc2)c1Cl | i | 100 | -2.8 | 115 | 0.9 | -4 | -3
44 | CSCCC(NC(C)=O)C(=O)Oc1ccc2c3c(c(=O)oc2c1)CCCC3 (centres undefined) | i | 101 | 0.0 | 127 | 0.88 | -3 | 16
45 | COc1ccc(NC(=O)CCNC(C)=O)cc1NS(=O)(=O)c1ccc(F)cc1 | i | 98 | 0.0 | 151 | 0.86 | -2 | -18
46 | CSCSC1=C(C#N)C(c2ccccc2Cl)C(C(C)=O)=C(C)N1 (centres undefined) | i | 99 | 0.5 | 209 | 0.67 | 3 | -43
47 | Cc1cc(NC(=O)c2ccc(Cl)c(S(=O)(=O)N3CCOCC3)c2)no1 | i | 103 | / | / | 0.83 | -2 | /
48 | Cn1cnc([N+](=O)[O-])c1SCCO | i | 101 | / | / | 1 | / | /
49 | CCOc1ncccc1C(=O)Nc1ccc(Cl)c(S(=O)(=O)N2CCCC2)c1 | i | 103 | / | / | 0.89 | -5 | /
50 | CC(NC(=O)c1ccco1)C1COc2ccccc2O1 (centres undefined) | i | 96 | -2.4 | 102 | 1 | -6 | -26

# Full records, quoted from the list:
# COCCn1c(SCC(=O)Nc2ccc(S(N)(=O)=O)cc2)nc2ccccc21 is entered as HSV augment: i; RGS16-Gao: 99; GALR2 agonist: -1.1; INS promoter inh cell count: 119; HSV augment primary fold: 0.95; PKD1 kinase inh: 1; INS promoter inh: -3
# COC1=CCC2([N+](=O)[O-])CN(CCO)CC1([N+](=O)[O-])C2 (centres undefined) is entered as HSV augment: i; RGS16-Gao: 101; GALR2 agonist: 0.3; INS promoter inh cell count: 86; HSV augment primary fold: 0.98; PKD1 kinase inh: -1; INS promoter inh: -23

# Later entries:
No. | Molecule | HSV augment | RGS16-Gao | GALR2 agonist | INS promoter inh cell count | HSV augment primary fold | PKD1 kinase inh | INS promoter inh
51 | COc1ccc(/C=C/C(=O)NC(CCSC)C(=O)O)cc1 (centres undefined) | i | 102 | / | 86 | 0.95 | 0 | -7
52 | CCn1cc(C2N3CC4(C)CN2CC(C)(C3)C4=O)c2ccccc21 (centres undefined) | i | 106 | -2.2 | / | 1.1 | 2 | /
53 | Cc1ccccc1NC(=O)CCN1CCCC1 | i | 106 | / | / | 1.1 | -2 | /
54 | COc1ccccc1NC(=S)N(Cc1ccc(C)cc1)Cc1ccccn1 | i | 108 | / | / | 0.92 | 0 | /
55 | CCC(C)/C(C)=N/NC(=O)c1ccc(COc2ccc(Cl)c(C)c2)cc1 (centres undefined) | i | 111 | -2.0 | 109 | 1 | -20 | 0
56 | Cc1c(CCOC(=O)c2ccc([N+](=O)[O-])cc2)sc[n+]1CC(=O)c1ccccc1 | i | 102 | / | 116 | 1 | -1 | 56
57 | CC(C)Nc1ccc(Cl)cc1[N+](=O)[O-] | i | 104 | / | / | 1 | / | /
58 | Clc1ccccc1CSc1nnc(-c2ccncc2)o1 | i | 104 | -0.3 | 54 | 0.86 | -4 | -3
59 | COc1ccc(C(CC(=O)N2CCCC2)c2c(O)cc(OC)cc2OC)cc1 (centres undefined) | i | 103 | / | / | 0.96 | / | /
60 | CCC(C)NC(=O)C1CCC(=O)N(c2cc(OC)c(OC)c(OC)c2)C1c1ccc(OC)cc1 (centres undefined) | i | 26 | -0.2 | 105 | 0.9 | -5 | -18
61 | Cc1ccc(Nc2nc3c([nH]2)c(=O)n(C)c(=O)n3C)cc1 | i | 96 | -2.5 | 81 | 0.9 | -6 | 6
62 | N#Cc1ccc(COn2nnc3ccccc32)cc1 | i | 98 | / | / | 0.9 | -8 | /
63 | Cc1cccc(OCC(=O)Nc2sc3c(c2C#N)CCC3)c1 | i | 92 | -0.7 | 112 | 0.8 | -14 | 17
64 | O=C(COc1cccc2ccccc12)N1CCN(c2ccccc2)CC1 | i | 102 | -0.7 | 115 | 0.92 | -17 | -31
65 | Cc1nnc(NC(=O)C2CCCN(c3ncccn3)C2)s1 (centres undefined) | i | 104 | -0.3 | / | 0.97 | -3 | /
66 | O=C(O)C1C2CCC(O2)C1C(=O)NCc1ccncc1 (centres undefined) | i | 104 | -0.8 | / | 0.99 | -2 | /
67 | CC(=O)c1ccc(NC(=O)CSc2nnc(Cn3c(=O)sc4ccccc43)n2C)cc1 | i | 97 | -0.4 | / | 0.88 | -8 | /
68 | CCCn1cnc2cc(NCc3ccccn3)ccc21 | i | 80 | / | / | 0.96 | 4 | /
69 | COC(=O)CCCCC1SCC(NC(=O)c2ccccc2)C1=O (centres undefined) | i | 103 | / | / | 0.89 | 8 | /
70 | c1coc(CNC2C3CC4CC(C3)CC2C4)c1 (centres undefined) | i | 77 | -0.8 | 81 | 0.89 | 3 | -16
71 | O=C(NCc1ccc2c(c1)OCO2)NC1CCCCC1 | i | 100 | / | / | 0.92 | -3 | /
72 | CC(N=C1NS(=O)(=O)c2ccccc21)C(=O)NCCCc1ccccc1 (centres undefined) | i | 105 | / | 112 | 1 | -4 | 6
